High-throughput results deposited in PubChem BioAssay by several laboratories.
Mtb hypoxia inh: reduces hypoxia-regulated biosensor signal in M. tuberculosis; M. tuberculosis hypoxia-regulated fluorescent reporter, fluorescence; fluorescence inhibition, % (no concentration beside the values); hit rate 0.1% among 300,000; AID 1159583;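 active means 35 to 45% if threefold the growth effect, above 45% if 1.5-fold the growth effect; inactive means the rest, general growth blockers included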;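 further: wells of about 50 µL received 100 nL stock; 0% = vehicle wells and 100% = reference inhibitor wells; whole bacteria with a GFP reporter of the hypoxia response; strong numbers were not always called active; many hits fall short of the cut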
RN4220 kill: S. aureus RN4220 growth inhibition. OD600, 16 h. inhibition, % (concentration not given with the values). hit rate 0.33% among 330,000. AID 1259311;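 active means z-score of -3 or lower and OD600 up to 0.18 on both plates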;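 further: plate controls were untreated cells for no effect and reference antibiotic for full effect; stock transfer was 100 nL into about 80 µL; one replicate is shown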
ugtP null kill: compounds lethal to S. aureus RN4220 ugtP deletion mutant; OD600 growth, 16 h; some inactives read as strong as hits; growth inhibition, % (no concentration beside the values); hit rate 0.54% among 330,000; AID 1259309;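 active means z-score under -3 and OD600 up to 0.15 on both plates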;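 further: plate controls were untreated wells for no effect and antibiotic for full effect; wells of about 80 µL received 100 nL stock; the first replicate is given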
Bead autofluor: counter-screen for toxin protease inhibitors: compound fluorescence; compound autofluorescence counterscreen, microsphere flow cytometry; active compounds read high; fluorescence intensity (test concentration not listed); hit rate 3.1% among 360,000; AID 624483;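 active means at least 3 SD above the mean of all compounds, about 16000 in these data; inconclusive means too few beads counted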;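 further: 100 nL of 1 mM stock went into each well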
PrP 5UTR inh: inhibition of PrP 5' UTR reporter expression; cell-based PrP 5' UTR mRNA reporter, plate reader; inhibition, % (no concentration beside the values); hit rate 0.35% among 340,000; AID 488862;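 active means every replicate at 50% or more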;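 further: 0 = median of the neutral control wells; tested in H4 reporter cells; numbers are from one replicate; inactives centre near -14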
BJeLR viability: BJeLR cell viability loss | BJeLR (HRASV12) viability, CellTiter-Glo ATP luminescence, 48 h; reference of the scale not given here | inhibition, % (test concentration not listed) | hit rate 0.17% among 300,000 | AID 1554;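 active means replicate mean above 50%; inconclusive means above 50% but judged a plate artefact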;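 further: 50 nL library stock added to about 25 µL; numbers are from one replicate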
Mtb hypoxia inh growth: recorded beside Mtb hypoxia inh, whose call it bears; growth inhibition, %; measured here: M. tuberculosis growth (absorbance);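 0% = vehicle and 100% = reference antibiotic; read after six days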
Numbers without * were called inactive; ? = inconclusive; . = no result given.

#1 COc1ccc(N2CCN(C(=O)COC(=O)c3c(-c4ccccc4)noc3C)CC2)cc1
#2 CC1CN(C(C)CO)C(=O)c2cccc(NC(=O)Cc3ccccc3)c2OC1CN(C)Cc1ccc2c(c1)OCO2 (configuration not stated)
#3 CC(C)C[C@H](NC(=O)NC(C)C)C(=O)O
#4 CC1(C)CC(C)(O)P(=O)(c2ccccc2)O1 (configuration not stated)
#5 O=C(NNC(=O)C12CC3CC(CC(Cl)(C3)C1)C2)c1csc(N2CCOCC2)n1
#6 Cc1cc([N+](=O)[O-])nn1CCCC(=O)Nc1cc(Oc2ccccc2)cc([N+](=O)[O-])c1
entry no.	1	2	3	4	5	6
Bead autofluor	5870	.	10938	16054	6347	2150
PrP 5UTR inh	-15	.	9	-19	-8	6
Mtb hypoxia inh growth	-3	7	6	5	.	9
BJeLR viability	.	.	-3	.	5	15
ugtP null kill	-3	-21	-2	3	.	-16
Mtb hypoxia inh	-6	4	3	3	.	6
RN4220 kill	-0.3	18	6.4	0.5	.	2.1

#7 Cc1ccc(S(=O)(=O)N2CCC(C(=O)NCCCn3ccnc3)CC2)cc1
#8 CC1Cc2ccccc2N1C(=O)c1cnsn1 (configuration not stated)
#9 Cc1ccc(C)c(SCC(=O)OC/C(O)=C(\C#N)c2nc3ccccc3[nH]2)c1
#10 O=C(NCc1ccco1)/C(=C\C=C\c1ccccc1)NC(=O)c1ccccc1Br
#11 COc1cccc(CNC(=O)CN2C(=O)COc3ccc(S(=O)(=O)N4CCCCC4)cc32)c1
#12 COC(=O)C1C(=O)C2=C(CC1C)Nc1ccccc1NC2c1ccc(C)s1 (configuration not stated)
entry no.	7	8	9	10	11	12
Bead autofluor	?	4912	3753	2743	4168	2673
PrP 5UTR inh	-16	-15	4	-15	4	-39
Mtb hypoxia inh growth	-4	.	10	6	2	0
BJeLR viability	8	-8	9	0	-2	-3
ugtP null kill	3	-1	5	8	-1	6
Mtb hypoxia inh	0	.	8	14	1	1
RN4220 kill	-1.5	-0.8	6.1	6.0	-0.3	5.2

#13 CCC(=O)Nc1cccc(-c2cnc3ccccc3n2)c1
#14 O=C(c1ccccc1[N+](=O)[O-])N1CC2C3C=CC(C3)C2C1 (configuration not stated)
#15 Cn1c(=O)n(C)c2cc(NC(=O)c3ccc(F)cc3)c(Br)cc21
#16 Cc1ccc(NC(=O)c2c(C(=O)Nc3ccccc3)sc3nc(C)cc(=O)n23)cc1
#17 CC(=O)Nc1cccc(NC(=O)CSc2nccn2Cc2ccccc2)c1
#18 CN(C)CCCOc1cccc(Cl)c1
entry no.	13	14	15	16	17	18
Bead autofluor	?	4816	3707	3394	4472	2061
PrP 5UTR inh	-25	-34	-11	-22	-4	1
Mtb hypoxia inh growth	10	-1	3	9	-1	8
BJeLR viability	-7	1	24	1	-10	3
ugtP null kill	-14	2	5	11	8	0
Mtb hypoxia inh	-14	16	11	-4	3	1
RN4220 kill	-2.6	1.0	4.5	1.2	1.0	5.3

Grouped by structure: the compounds so far containing an aryl methoxy group.
#1 COc1ccc(N2CCN(C(=O)COC(=O)c3c(-c4ccccc4)noc3C)CC2)cc1
#11 COc1cccc(CNC(=O)CN2C(=O)COc3ccc(S(=O)(=O)N4CCCCC4)cc32)c1
entry no.	1	11
Bead autofluor	5870	4168
PrP 5UTR inh	-15	4
Mtb hypoxia inh growth	-3	2
BJeLR viability	.	-2
ugtP null kill	-3	-1
Mtb hypoxia inh	-6	1
RN4220 kill	-0.3	-0.3

Other entries:
#19 O=C(CN1CCC(n2nnc3cc(C(F)(F)F)ccc32)CC1)NCc1cccs1
#20 O=C(c1ccc(N2CCCC2=O)cc1)N1CCN(c2ccc(Cl)cc2)CC1
#21 Cc1ccc(OP(=O)(NC(C)c2ccccc2)Oc2ccc(C)cc2)cc1 (configuration not stated)
#22 CC1C/C(=C/c2ccccn2)C(=O)/C(=C/c2ccccn2)C1 (configuration not stated)
#23 CN(C)/C=N/c1cc(=O)n(Cc2ccccc2)c(=O)n1C
#24 O=C(O)CCn1c(SCCc2ccccc2)nc2ccccc21
entry no.	19	20	21	22	23	24
Bead autofluor	4431	7836	4795	2644	3785	.
PrP 5UTR inh	1	-18	-14	37	-14	-17
Mtb hypoxia inh growth	.	7	-4	.	.	17
BJeLR viability	-3	7	4	-15	4	-9
ugtP null kill	.	3	-1	.	.	10
Mtb hypoxia inh	.	5	-2	.	.	8
RN4220 kill	.	3.8	2.2	.	.	6.0

#25 CCN(CC)c1ccc(S(=O)(=O)N2CCCCC2)cc1NC(=O)C1CSC2(C)CCC(=O)N12 (configuration not stated)
#26 Fc1ccccc1-c1nc2ccccc2[nH]1
#27 O=C1c2ccccc2NC(c2ccc(-c3ccc(Br)cc3)o2)N1O (configuration not stated)
#28 O=c1oc(-c2cccs2)nc2ccc(Br)cc12
#29 Cc1cc2nc(-c3cccnc3SCC(=O)NCc3ccco3)[nH]c2cc1C
#30 COc1ccc(CCNC(=O)C2CCN(S(=O)(=O)c3cc(OC)ccc3OC)CC2)cc1
entry no.	25	26	27	28	29	30
Bead autofluor	3987	3357	9927	10836	22154*	2811
PrP 5UTR inh	-13	-110	-13	-36	-77	-27
Mtb hypoxia inh growth	1	16	3	4	1	7
BJeLR viability	.	7	1	-7	14	-4
ugtP null kill	0	6	-26	5	-3	-4
Mtb hypoxia inh	-7	9	5	8	14	12
RN4220 kill	4.6	4.3	10	4.4	3.8	-15

#31 CCOc1ccc(Nc2cc(C)nc3nc(C)nn23)cc1
#32 COc1cc(C)ccc1OCC(=O)Nc1ccccc1N1CCOCC1
#33 O=C(/C=C/c1ccccc1)NCC(=O)N/N=C\c1cccnc1
#34 COc1ccc(NC(=O)c2sccc2OS(=O)(=O)N(C)C)cc1
#35 CN(C)CCN(C(=O)CN1C(=O)c2ccccc2C1=O)c1nc2cc3c(cc2s1)OCO3
#36 Nc1cccc(CCc2ccncc2)c1
entry no.	31	32	33	34	35	36
Bead autofluor	4305	3222	2081	4350	5895	4148
PrP 5UTR inh	-8	-66	-16	-10	-23	-14
Mtb hypoxia inh growth	.	10	.	3	-12	9
BJeLR viability	-12	.	-5	-4	-6	-3
ugtP null kill	.	0	.	-2	0	3
Mtb hypoxia inh	.	12	.	16	-7	4
RN4220 kill	.	3.4	.	3.7	-2.5	1.7

#37 CCOC(=O)C[n+]1c(C)csc1C
#38 O=C1NC2=C(C(=O)CCC2)C(c2ccc3ncccc3c2)N1 (configuration not stated)
#39 Cn1c2ccc(Cl)cc2c2nc3ccccc3nc21
#40 O=C(c1ccccc1)c1c[nH]c(C(=O)NCCCN2CCOCC2)c1
#41 COc1ccccc1C(=O)N1CCN(C2CCN(Cc3ccccc3)CC2)CC1
#42 COc1ccc(CN(Cc2cccnc2)S(=O)(=O)c2ccc(-n3cnnn3)c(C)c2)cc1OC
entry no.	37	38	39	40	41	42
Bead autofluor	8387	5451	4173	22011*	5163	7144
PrP 5UTR inh	-23	-23	-5	-5	-36	-15
Mtb hypoxia inh growth	.	6	0	10	.	3
BJeLR viability	-2	-5	8	-4	-9	-3
ugtP null kill	.	9	9	-6	8	3
Mtb hypoxia inh	.	12	10	2	.	0
RN4220 kill	.	5.9	-4.2	1.7	5.1	2.2

#43 Cc1ccc(-c2cc(C(=O)N/N=C/c3ccc(Cl)cc3)n[nH]2)o1
#44 CSc1nnc(C)c(=O)n1COC(=O)COc1ccc(Cl)cc1
#45 Cc1ccc(C)c(OCC(=O)Nc2nonc2NC(=O)COc2cc(C)ccc2C)c1
#46 O=C1c2ccccc2C(Nc2ccc3c(c2)OCCO3)N1Cc1ccccc1 (configuration not stated)
#47 C/C(=N/O)c1ccc2ccc3ccccc3c2c1
#48 CCN1CSC(=S)N(Cc2ccccc2)C1
entry no.	43	44	45	46	47	48
Bead autofluor	5694	5310	4130	6157	5340	4163
PrP 5UTR inh	-12	-24	-18	10	-53	-14
Mtb hypoxia inh growth	.	0	16	.	.	1
BJeLR viability	-6	12	-2	-11	-2	-5
ugtP null kill	.	0	-32	12	.	15
Mtb hypoxia inh	.	3	3	.	.	13
RN4220 kill	.	2.6	5.9	12	.	19

#49 COc1ccc(COC(=O)CCS(=O)(=O)c2ccc(C)cc2)cc1
#50 O=[N+]([O-])c1ccccc1NCCNc1ncc(C(F)(F)F)cc1Cl
#51 CN1C(=O)c2ccc(C(=O)Nc3ccccc3O)cc2C1=O
#52 C(=N\N1CCN(C2c3ccccc3-c3ccccc32)CC1)/c1ccncc1
#53 C/C(=N\NC(=S)NCCc1ccccc1)c1ccc(Cl)cc1Cl
#54 C/C(=N\NC(=O)c1ccc(-c2ccccc2)cc1)C1C(=O)c2ccccc2C1=O
entry no.	49	50	51	52	53	54
Bead autofluor	5957	2678	3329	2423	5834	4231
PrP 5UTR inh	-14	-72	-23	-37	-21	-27
Mtb hypoxia inh growth	2	.	1	.	.	.
BJeLR viability	1	3	5	5	-3	11
ugtP null kill	2	0	14	.	.	.
Mtb hypoxia inh	-1	.	5	.	.	.
RN4220 kill	2.5	-4.1	4.8	.	.	.

#55 CCOc1ccc(NC(=O)CSc2nc3ccccc3c(=O)n2CCCC(=O)NCCCN2CCCC2=O)cc1
#56 COc1ccccc1N1CCN(C(=O)c2ccc(S(=O)(=O)N3CCCCC3)cc2)CC1
#57 CCC1(c2ccc(F)cc2)NC(=O)N(CC(=O)N2CCc3ccccc3C2)C1=O (configuration not stated)
#58 Cc1ccc(SCCn2nc(C(=O)O)c3ccccc3c2=O)cc1
#59 CC(C(=O)Nc1sc2c(c1C(=O)NCc1ccco1)CCCC2)N1C(=O)c2ccccc2C1=O (configuration not stated)
#60 CCCC(=O)Nc1cccc(-c2nc3cc(C)c(C)cc3o2)c1
entry no.	55	56	57	58	59	60
Bead autofluor	5129	2611	6096	3875	3525	4757
PrP 5UTR inh	-22	-17	-18	4	1	-48
Mtb hypoxia inh growth	7	.	-12	12	3	.
BJeLR viability	-10	1	-12	9	19	13
ugtP null kill	7	-4	3	3	4	-9
Mtb hypoxia inh	9	.	-12	1	0	.
RN4220 kill	1.7	2.0	0.8	2.0	13	-1.0

Profiles, looked up by structure. Screens in order: Bead autofluor, PrP 5UTR inh, Mtb hypoxia inh growth, BJeLR viability, ugtP null kill, Mtb hypoxia inh, RN4220 kill
`COc1ccccc1N1CCN(C(=O)c2ccc(S(=O)(=O)N3CCCCC3)cc2)CC1` is entered as 2611, -17, ., 1, -4, ., 2.0
`Cc1ccc(SCCn2nc(C(=O)O)c3ccccc3c2=O)cc1` is entered as 3875, 4, 12, 9, 3, 1, 2.0

The listing continues:
#61 COc1ccc(NC(=O)NCc2ccccn2)cc1OC
#62 O=C(Nc1cc2c(oc1=O)CCCC2=O)c1ccc(Cl)cc1
#63 Cc1cccc(NC(=O)CSCC(=O)Nc2ccccc2C(=O)NC2CC2)c1
#64 O=C(CNC(=O)c1ccc(Br)o1)NCc1ccccc1
#65 O=C(NCC1CCCO1)c1cc2c([nH]c3ccccc32)c(-c2cccc(Br)c2)n1 (configuration not stated)
#66 CCCCc1nc2sc3c(SCC(=O)NCc4ccco4)ncnc3c2c2c1CCC2
#67 COc1ccc(OC)c(CCNC(=O)CSc2ccsc2[N+](=O)[O-])c1
#68 Cc1ccc(C(=O)OCC(=O)NC(C)C)cc1S(=O)(=O)N1CCOCC1
#69 CCOC(=O)C1C2C=CC3(CN(c4ccc(Cl)c(F)c4)C(=O)C13)O2 (configuration not stated)
entry no.	61	62	63	64	65	66	67	68	69
Bead autofluor	19081*	15324	?	5690	5980	3690	2324	3243	5953
PrP 5UTR inh	-9	-11	-8	-18	-48	-8	-8	-16	-11
Mtb hypoxia inh growth	7	5	9	5	.	6	-8	22	.
BJeLR viability	-3	2	2	5	-1	3	5	-6	4
ugtP null kill	6	1	6	2	-32	17	0	2	3
Mtb hypoxia inh	7	8	12	1	.	13	1	7	.
RN4220 kill	6.8	3.4	2.8	-1.4	-3.0	-4.7	-0.1	3.1	3.0
